Screening results: PubChem BioAssay, several laboratories
MT1-MMP act inh: blockers of MT1-MMP proenzyme processing, primary screen, HT1080 RFP-PRO-GFP cells, GFP/RFP fluorescence. Matrix metalloproteinase-14 (Homo sapiens), P50281. GFP/RFP ratio fluorescence, overnight; percent of plate control window, DMSO zero. GFP/RFP ratio change, % at 20 µM. actives 0.061% (n = 360,000). AID 651647, 2012;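 active means GFP/RFP ratio change of at least 30% with cell ATP level not reduced by more than half and red fluorescence within 50% of control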; further: strong numbers were not always called active
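Read-out: GFP/RFP fluorescence ratio; Test system: RFP-PRO-GFP reporter HT1080 cells; Compound dosing: single-point 20 µM compound, 1% DMSO; Times: overnight compound exposure at 37 °C.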
CSC inhib: cancer stem cell viability inhibitors, primary screen, luminescence | inhibition, % at 7.5 µM | cancer stem cell-like cells viability | actives 1.1% (n = 300,000);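 active means mean at 75% or more and at least half the replicates too; inconclusive means mean and replicates disagree; tested in HMLE shEcad cells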;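 further: 0% = median of negative and 100% = median of positive control wells; the first replicate is given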
Env fusion inh: inhibitors of HIV-1 Env-driven cell-cell fusion, primary screen, HeLa-JRFL effector, CEM21 target cells, luciferase; actives 1.1% (n = 360,000); inhibition, % at 12.3 µM;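 active means mean replicate inhibition score of at least 50 and every replicate individually at or above 50; inconclusive means only one of the two criteria met; inactive means mean below 50 and not all replicates reaching 50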;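 further: 0% = plate neutral controls and 100% = maraviroc near 300 nM; one replicate is shown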
eIF4H FP inh: human eIF4H binding inhibitors, primary screen, translation initiation inhibitor project, biochemical, uHTS, fluorescence polarization; inhibition, % at 35 µM; AID 2012, 2009; eIF4H fluorescence polarization binding assay; Eukaryotic translation initiation factor 4H (Homo sapiens), Q15056; actives 0.94% (n = 290,000);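 active means 50% or more with normal probe brightness, or confirmed in later tests; inconclusive means above 50% with abnormal brightness, or retests that disagree; inactive means below 50% or failed in later tests; about a fifth of its hits are not listed in these tables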;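 further: calls also rest on retests at 20 µM and on dose response follow-up; 0% = protein and probe with vehicle and 100% = probe without protein; strong numbers were not always called active; many hits fall short of the cut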
Yeast UUG start: modulators of yeast start codon fidelity, primary screen, whole organism, S. cerevisiae, single point, plate reader | S. cerevisiae UUG-firefly luciferase reporter, luminescence/redox ratio | activity score, % at 18.7 µM | actives 0.13% (n = 350,000);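 active means replicate mean at a twofold rise or more, about +100% in these data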;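 further: firefly luciferase made from a UUG start codon reports start codon fidelity; reporter light over untreated wells divided by growth signal over untreated wells; some hits fall short of that in this replicate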
PABP polyA inh: PABP poly(A) RNA binding inhibitors, primary screen, biochemical, fluorescence polarization, uHTS; actives 1% (n = 290,000); AID 2014, 2009; Polyadenylate-binding protein 1 (Homo sapiens), P11940; inhibition, % at 35 µM;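 active means 50% or more with normal probe brightness, or confirmed in later tests; inconclusive means above 50% with abnormal brightness, or retests that disagree; inactive means below 50% or failed in later tests; about a fifth of its hits are not listed in these tables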;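 further: calls also rest on retests at 20 µM and on dose response follow-up; controls were probe without protein and protein plus probe with vehicle; some compounds called inactive have numbers as strong as hits; many hits fall short of the cut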
Target sequence (P11940 whole entry, looked up): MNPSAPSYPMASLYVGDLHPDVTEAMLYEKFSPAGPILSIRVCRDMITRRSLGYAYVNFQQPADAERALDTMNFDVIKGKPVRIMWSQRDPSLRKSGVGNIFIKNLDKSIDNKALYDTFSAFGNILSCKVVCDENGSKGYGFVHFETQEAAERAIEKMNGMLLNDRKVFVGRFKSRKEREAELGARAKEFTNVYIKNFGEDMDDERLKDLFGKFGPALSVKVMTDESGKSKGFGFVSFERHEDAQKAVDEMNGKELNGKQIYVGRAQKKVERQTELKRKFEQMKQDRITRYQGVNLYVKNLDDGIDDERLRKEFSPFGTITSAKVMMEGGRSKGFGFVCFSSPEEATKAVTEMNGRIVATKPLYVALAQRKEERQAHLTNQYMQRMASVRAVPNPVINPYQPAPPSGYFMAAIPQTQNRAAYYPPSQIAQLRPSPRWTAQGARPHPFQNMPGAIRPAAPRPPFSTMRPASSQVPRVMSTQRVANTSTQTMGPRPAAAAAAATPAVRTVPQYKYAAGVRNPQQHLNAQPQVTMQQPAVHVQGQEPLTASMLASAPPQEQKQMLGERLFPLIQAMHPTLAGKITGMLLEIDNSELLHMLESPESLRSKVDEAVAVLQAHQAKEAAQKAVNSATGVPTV
Rce1 inhib: yeast Rce1p protease inhibitors, primary screen, biochemical, fluorescence, cell-free homogeneous. calls only. CAAX prenyl protease 2 (Saccharomyces cerevisiae (strain ATCC 204508 / S288c)), Q03530. yeast membranes, quenched prenylated peptide cleavage fluorescence. actives 0.27% (n = 290,000);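 active means fall in fluorescence gain of 50% or more versus controls, with final raw signal at or below 3038400; inconclusive means same 50% fall but final raw signal above 3038400; inactive means fall in fluorescence gain under 50%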;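 further: plate controls were neutral control wells for no effect and wells lacking membranes for full effect; tested at 10 µM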
MT1-MMP act inh RFP: recorded beside MT1-MMP act inh, whose call it bears; RFP signal change, %; measured here: RFP expression control read;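 0 = vehicle wells; hits needed this value within 50% of zero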
Numbers without * were called inactive; i = inactive; ? = inconclusive; / = not tested or not shown; + = active, no number; & = joins results of further samples.

SMILES	MT1-MMP act inh	MT1-MMP act inh RFP	CSC inhib	Env fusion inh	eIF4H FP inh	Yeast UUG start	PABP polyA inh	Rce1 inhib
CCCCn1c(O)c(C(C)=NCc2cc(OC)cc(OC)c2)c(=O)[nH]c1=O	3	1	2	32	-6	-17	10	i
CC(C)OCCCNC(=O)c1c(N)n(CC2CCCO2)c2nc3ccccc3nc12 (centres undefined)	-11	6	-9	/	8	/	-6	+
CN(C)C(=O)Oc1ccc(Cl)c2ccccc12	3	4	-5	-182	-8	-50	4	/
NNCc1ccccc1	5&2	3&4	/	24&9	/	-16&0	/	/
COC(=O)C1=C(c2ccccc2OCc2ccccc2)C[C@@H]2CC[C@H]1N2C(=O)NCc1ccc(Br)cc1	-8	-12	26	25	/	-11	/	/
O=c1[nH]c(=O)n(-c2cccc3ccccc23)c(O)c1/C=N/N1CCCCCC1	-2	-1	-4	18	9	/	4	i
COc1ccccc1/C=C1\C(=O)NC(=S)N(c2ccccc2)C1=O	-11	1	-1	0	-8	-8	0	i
CCn1c(O)c(C=NCCN2CCOCC2)c(=O)[nH]c1=S	1	2	9	-5	-1	/	-8	i
CC(C)OC(=O)c1c(N)n(Cc2ccco2)c2nc3ccccc3nc12	-16	3	-12	/	/	-10	/	i
CCc1cc(=O)oc2cc(OCC(=O)N3C[C@H]4C[C@@H](C3)c3cccc(=O)n3C4)c(Cl)cc12	-2	2	-9	/	-14	-10	-2	i
C=CCN1C(=O)NC(=O)C(Cc2ccc(OC)c(OC)c2)C1=O (centres undefined)	4	8	-10	-29	30	-4	30	i
OC(CN1CC=C(c2ccccc2)CC1)c1ccccc1 (centres undefined)	-3	-2	-2	1	-3	-13	3	i
CCOc1cc(C2NCc3ccccc3-n3cccc32)ccc1O (centres undefined)	-6	-3	1	/	-2	/	8	i
CC(C)C(=O)NC(Oc1ccccc1Cl)C(Cl)(Cl)Cl (centres undefined)	2	7	-13	4	3	1	-13	i
CC1(C)CN=C(Nc2ccc(F)c(F)c2)S1	0	0	-8	-6	-2	-21	11	i
CCOC(=O)[C@]1(C#N)[C@@H]2C=CC(C(N)=O)=CN2[C@@H](C(N)=O)[C@@H]1c1ccc(F)cc1	/	/	-2	5	26	/	19	i
C=C(C)CN1CC[C@]23c4c5ccc(O)c4O[C@H]2c2[nH]c4ccccc4c2C[C@@]3(O)C1C5	/	/	4	/	-9	/	2	i
CC(C)(C)c1ccccc1O	1	8	-11	/	/	1	/	/
Cn1cc(C(=O)N2CCOCC2)c2ccccc21	5	-9	13	17	-4	/	19	i
Cc1nc2cc([N+](=O)[O-])ccc2c(=O)n1-c1ccc(Br)cc1	3	2	-6	0	3	-7	-13	i
O=C1CNC(c2ccccc2Cl)c2cc(Br)ccc2N1 (centres undefined)	-1	-3	-4	-1	3	2	-8	i
Cc1c(C(=O)N2CCC3(CC2)OCCO3)sc2ncnc(N3CCc4ccccc4C3)c12	1	-5	-18	19	4	-4	-1	i
COc1ccc(N2CCN(Cc3nc4ccccc4[nH]3)CC2)cc1	-2	2	0	20	13	-28	-3	i
N/C(=N\[N+](=O)[O-])N1CCN(C(=O)OC2CCCC2)CC1	0	3	-5	-19	10	-13	2	i
CCC(CC)C(=O)NC1CCSC1=O (centres undefined)	2	10	-9	/	4	-14	-9	i
O=C(c1ccc2nc3ccc(Cl)cc3c(=O)n2c1)N1CCC2(CC1)OCCO2	-3	0	-13	-1	/	7	/	/
COC(=O)C1=C(c2ccc3ccccc3c2)C[C@@H]2CC[C@H]1N2C(=O)NCc1ccco1	2	-1	6	6	/	-12	/	/
O[C@H]1[C@H](O)[C@@H](O)CN2CC[C@H](O)[C@H]12	-3	-2	-4	2	-3	-19	3	i
CC(C)CCC1(CN2CCCC2=O)C(=O)NC(=O)NC1=O	2	2	/	/	-7	-8	-6	i
COc1cc2[nH]c(=O)n(-c3ccccc3)c(=O)c2cc1OC	-4	2	1	/	-2	-9	-12	i
Cc1ccc(-c2cc(-c3ccccc3)cc(-c3ccccc3)[n+]2-c2ccccc2C(=O)O)cc1	4	-10	-3	27	/	-11	/	i
CC/C(=N\NC(=O)c1ccccc1Cl)c1c(O)n(C2CCCCC2)c(=O)[nH]c1=O	4	4	8	12	-2	-25	3	i
Cc1cc(C)n2nc(SCC(=O)N3CCC4(CC3)OCCO4)nc2n1	8	3	-6	-24	-2	21	-10	i
CC(C)Nc1nc(Cl)nc(NC(C)C)n1	0	-1	-10	-77	14	/	-6	i
O=c1[nH]c(=O)n(CCc2ccc(F)cc2)c(O)c1C=NCCCN1CCOCC1	-1	-2	/	/	-2	-18	-17	i
OC1/C(=C/c2ccc(Cl)cc2Cl)N2CCC1CC2 (centres undefined)	3	0	1	6	2	-19	8	i
CN1C(=O)N(C)C(=O)C2(Cc3c(ccc4ccccc34)N(C)C2)C1=O	-3	-2	4	1	7	2	9	i
O=C(c1ccc(Br)cc1)C12CN3CN(CN(C3)C1)C2	0	2	-8	10	11	/	-11	i
CC1CCCCN1Cc1c[nH]c2ccccc12 (centres undefined)	1	6	-20	9	4	-21	-4	i
O=C(NC1CCCCC1)N1Cc2cc(-c3ccccc3)ccc2-n2nncc2C1	6	-1	/	-6	/	-5	/	/
CCCCn1c(O)c(C(C)=NCCc2c[nH]c3ccccc23)c(=O)[nH]c1=O	7	-5	-16	23	84*	/	66*	i
CCOc1cccc(OCC)c2c(C)[n+](CC3CCCO3)c(C)c1-2 (centres undefined)	-7	8	/	/	?	-11	?	i
O=c1c2ccccc2[nH]c(=S)n1-c1ccc2c(c1)OCCO2	1	0	-15	-42	-4	/	-3	i
O=C(c1cc2cc(Br)ccc2[nH]1)N1CCC2(CC1)OCCO2	1	4	-4	-16	-1	-15	-1	i
CCN(C=C1CC2C3CC=C4CC(O)CCC4(C)C3CCC2(C)C1=O)CC (centres undefined)	-4	1	/	-11	/	7	/	/
CCOC(=O)C1=C(N)OC2=C(C(=O)CCC2)C12C(=O)N1c3c(ccc(C)c32)C(C)=CC1(C)C (centres undefined)	-5	-2	11	-116	1	-7	-1	i
CN(C)C(=O)Oc1ccc2ccccc2c1Cl	9	10	6	-238	0	-19	-3	i
CCCCN=Cc1c(O)n(-c2c(C)cc(C)cc2C)c(=O)[nH]c1=O	-11	2	1	13	35	-10	44	/
NCCc1c[nH]c2ccc(F)cc12	/	/	-3	/	-4	1	2	i
CCCCCCCCC(=O)NCc1ccc(O)c(OC)c1	1	-3	26	-2	/	-6	/	/

Next part
SMILES	MT1-MMP act inh	MT1-MMP act inh RFP	CSC inhib	Env fusion inh	eIF4H FP inh	Yeast UUG start	PABP polyA inh	Rce1 inhib
Cc1ccccc1-n1c(O)c(/C=N/NC(=O)c2ccccc2O)c(=O)[nH]c1=S	7	0	-2	-2	18	-42	-1	i
CCN(CC)C(=O)c1ccc(NC(=O)CSc2nnnn2-c2cc(OC)ccc2OC)cc1	3	-3	5	-41	2	13	-2	i
CC(=O)c1ccc(NC2=NCCCS2)cc1	0	4	-12	-15	8	-12	-1	/
CC/C(=N\N1CCCCCC1)c1c(O)n(-c2ccc(C)cc2)c(=O)[nH]c1=O	-5	-5	-10	4	0	/	-9	i
COC(=O)C1=C(c2ccc(-c3ccccc3)c(F)c2)C[C@@H]2CC[C@H]1N2C(=O)NCc1cc(C)oc1C(F)(F)F	-13	-16	47	-7	/	-20	/	/
C=CCN1C(=O)NC(=O)/C(=C/c2ccc(OCC(=O)Nc3ccc(C)cc3)cc2)C1=O	-5	1	3	/	-6	-26	8	i
CCCCn1c(O)c(C=Nc2c(C)n(C)n(-c3ccccc3)c2=O)c(=O)[nH]c1=O	2	4	-6	/	1	-14	-12	i
O=C1NCN(c2ccccc2)C12CCN(C(c1nnnn1-c1ccc3c(c1)OCCO3)C1CC1)CC2 (centres undefined)	1	-2	/	12	/	-2	/	/
Cc1ccc(-n2c(O)c(/C=N/Nc3ccccc3)c(=O)[nH]c2=O)cc1C	/	/	71	-9	-4	/	0	i
NC(CC(=O)O)C1CCCCC1 (centres undefined)	/	/	3	/	-7	/	7	i
O=c1c2cc(Cl)cc(Cl)c2nc(CN2CCOCC2)n1-c1ccccc1F	0	-8	-8	19	-2	-4	2	i
O=C1c2ccccc2C(=O)N1Cc1nc2ccccc2c(=O)n1-c1ccccn1	-1	-3	6	/	2	-19	2	/
COc1ccc(NC(=S)NC(NC(=O)CF)C(Cl)(Cl)Cl)c([N+](=O)[O-])c1 (centres undefined)	5	5	-1	/	-8	-11	-6	i

Among those listed so far, these have an aryl methoxy group.
SMILES	MT1-MMP act inh	MT1-MMP act inh RFP	CSC inhib	Env fusion inh	eIF4H FP inh	Yeast UUG start	PABP polyA inh	Rce1 inhib
CCCCn1c(O)c(C(C)=NCc2cc(OC)cc(OC)c2)c(=O)[nH]c1=O	3	1	2	32	-6	-17	10	i
COc1ccccc1/C=C1\C(=O)NC(=S)N(c2ccccc2)C1=O	-11	1	-1	0	-8	-8	0	i
C=CCN1C(=O)NC(=O)C(Cc2ccc(OC)c(OC)c2)C1=O (centres undefined)	4	8	-10	-29	30	-4	30	i
COc1ccc(N2CCN(Cc3nc4ccccc4[nH]3)CC2)cc1	-2	2	0	20	13	-28	-3	i
COc1cc2[nH]c(=O)n(-c3ccccc3)c(=O)c2cc1OC	-4	2	1	/	-2	-9	-12	i
CCCCCCCCC(=O)NCc1ccc(O)c(OC)c1	1	-3	26	-2	/	-6	/	/
CCN(CC)C(=O)c1ccc(NC(=O)CSc2nnnn2-c2cc(OC)ccc2OC)cc1	3	-3	5	-41	2	13	-2	i
COc1ccc(NC(=S)NC(NC(=O)CF)C(Cl)(Cl)Cl)c([N+](=O)[O-])c1 (centres undefined)	5	5	-1	/	-8	-11	-6	i

The list is partial; count on the stated rates, not on these rows.
